OX1R antag-1 – antagonists of human orexin 1 receptor. CHO/OX1R cells, Fluo-8 calcium fluorescence, orexin A. inhibition, % at 5 µM. 330,000 tested, 0.43% active. AID 434989;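 active = inhibition above its plate's threshold, mean inhibition of all tested compounds on the plate plus 3 SD, cut at about 37% in these data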;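 also: 0% = orexin A challenge wells and 100% = SB-334867-A antagonist wells; not every result past the cut was called active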
Target sequence (O43613 whole entry, looked up): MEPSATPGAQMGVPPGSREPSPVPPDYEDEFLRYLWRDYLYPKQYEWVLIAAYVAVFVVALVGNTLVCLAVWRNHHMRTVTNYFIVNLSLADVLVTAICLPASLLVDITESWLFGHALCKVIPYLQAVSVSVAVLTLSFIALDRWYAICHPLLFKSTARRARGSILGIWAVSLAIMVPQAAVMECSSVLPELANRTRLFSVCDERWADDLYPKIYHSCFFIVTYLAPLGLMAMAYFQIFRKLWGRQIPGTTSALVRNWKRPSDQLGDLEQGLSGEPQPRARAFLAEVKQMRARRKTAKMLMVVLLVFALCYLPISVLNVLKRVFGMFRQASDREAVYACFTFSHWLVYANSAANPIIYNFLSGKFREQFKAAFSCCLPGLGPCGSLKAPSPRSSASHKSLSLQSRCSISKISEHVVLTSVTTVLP
OX1R antag-2 – blocks the human orexin 1 receptor. O43613. OX1R-expressing cells, FRET antagonist read-out. AID 485270. inhibition, % at 6.6 µM. 330,000 tested, 1.8% active; in the data active = inhibition mostly above about 38%, no sharp cut-off; inactive = mostly below about 40%;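 also: 0% = agonist challenge alone and 100% = reference antagonist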
Numbers without * were called inactive.

OX1R antag-1,OX1R antag-2,structure
-18,6,COc1ccc(CN2C(=O)c3cccnc3C2=O)cc1S(=O)(=O)NCc1ccco1
-7,14,O=C(COC(=O)c1cccs1)NCc1ccccc1
3,21,Cc1ccc2c(c1)C(=O)CC1(CCC(C(C)(C)C)CC1)O2 (stereo not given)
-8,7,Cn1cccc1CC(=O)N/N=C/C=C/c1ccccc1
-22,7,CCCN(CC1CC1)c1nc(N)c(C#N)c(CC#N)c1C#N
5,6,S=C(NCCN1CCOCC1)Nc1ccccc1Cl
-17,9,CCOc1ccccc1OCC(=O)Nc1ccccc1C(=O)NC1CC1
-27,12,CCOc1ccc(Nc2nc(N)c([N+](=O)[O-])c(N3CCOCC3)n2)cc1
-10,-3,Cc1ccc(C(=O)NCC(=O)O)o1
-3,25,Cc1cc(C)c2[nH]c(=O)c(C(c3nnnn3Cc3ccc4c(c3)OCO4)N3CCCC3)cc2c1 (stereo not given)
-19,26,COc1ccc(OC)c(NC(=O)C2CC(=O)N(c3ccc(Br)cc3)C2)c1 (stereo not given)
-36,21,CCc1nc2ccc(C(=O)NCc3ccccc3)cc2nc1CC
-6,10,O=C(O)c1cc(=O)[nH]c2ccc(S(=O)(=O)Nc3ccc(F)cc3)cc12
-5,6,Cc1onc(C(=O)Nc2ccc(OC(F)(F)F)cc2)c1[N+](=O)[O-]
0,8,CS(=O)(=O)CCC(C(=O)OCc1ccc(Br)cc1)N1C(=O)c2ccccc2C1=O (stereo not given)
-9,20,NC(=O)NC(=O)CN1c2cccc3cccc(c23)S1(=O)=O
-16,24,CCc1nc2ccccc2n1CC1CC1(Cl)Cl (stereo not given)
-54,34,CCc1ccc(C(CC(=O)c2ccc(Cl)cc2)C(=O)O)cc1 (stereo not given)
-14,9,O=C(CN1CCCC1)Nc1ccc(Cl)cc1C(F)(F)F
-17,5,CCOC(=O)C1CCN(C(=O)c2ccc(NS(=O)(=O)c3ccc(F)cc3C)cc2)CC1

7 structures out of the list, arranged by number of heavy atoms, lowest first.
OX1R antag-1,OX1R antag-2,structure
-16,24,CCc1nc2ccccc2n1CC1CC1(Cl)Cl (stereo not given)
5,6,S=C(NCCN1CCOCC1)Nc1ccccc1Cl
-14,9,O=C(CN1CCCC1)Nc1ccc(Cl)cc1C(F)(F)F
-22,7,CCCN(CC1CC1)c1nc(N)c(C#N)c(CC#N)c1C#N
-5,6,Cc1onc(C(=O)Nc2ccc(OC(F)(F)F)cc2)c1[N+](=O)[O-]
-36,21,CCc1nc2ccc(C(=O)NCc3ccccc3)cc2nc1CC
-18,6,COc1ccc(CN2C(=O)c3cccnc3C2=O)cc1S(=O)(=O)NCc1ccco1

Carrying on:
OX1R antag-1,OX1R antag-2,structure
-14,26,O=C(Nc1c2c(nn1-c1ccc(F)cc1)CS(=O)(=O)C2)c1ccc2c(c1)OCO2
-31,-2,CN1CCN(C(=O)C2CCN(c3ncnc4c3nc3n4CCCCC3)CC2)CC1
-10,11,CCCCOc1ccc(/C=N/NC(=O)c2nnn(-c3nonc3N)c2C)cc1
-6,15,Cn1cc(C(=O)c2cccc(Cl)c2Cl)cc1C#N
-24,17,COc1ccc(S(=O)(=O)N2CCCC(C(=O)N3CCN(c4ccccc4)CC3)C2)cc1Cl (stereo not given)
-33,3,CC(C)(C)c1ccc(NC(=O)CNC2CCCc3ccccc32)cc1 (stereo not given)
-20,14,COc1ccc(C(=O)Nc2ccc(C(=O)Nc3cccnc3)cc2)cc1
-17,9,CC(C)(C)NC(=O)CN(CCc1ccccc1)C(=O)c1csnn1
-6,-4,O=C(O)c1ccc(Cn2ccc3ccccc32)o1
-7,11,CN(C)S(=O)(=O)c1ccc2c(c1)nc(CCC(=O)NCCc1ccc(Cl)cc1)n2C
-10,13,O=C(NCC(c1ccco1)N1CCN(c2ccc(F)cc2)CC1)C(=O)NC1CCCCC1 (stereo not given)
-20,16,Cc1cccc(NS(=O)(=O)c2cc(OCC(N)=O)c(C)cc2Cl)c1
-10,13,CCOc1ccccc1NC(=O)c1cccnc1
-23,2,CC1CCCN(CCCCOc2cccc(Br)c2)C1 (stereo not given)
-6,15,Cc1cc(NC(=O)Nc2ccc3c(ccn3C)c2)sn1
-45,12,Cc1ccc(-c2csc(Nc3ccccc3)[n+]2CCc2ccccc2)cc1
-6,31,COc1ccc2cc(/C(C)=N/NC(=S)Nc3cc(S(=O)(=O)N4CCOCC4)ccc3N3CCOCC3)ccc2c1
-19,3,COc1ccc(-c2csc(N(CCCN3CCOCC3)C(=O)CCl)n2)cc1
0,0,COc1ccc(F)cc1S(=O)(=O)n1nc(C)cc1C
-5,10,O=C(c1ccccc1Cl)N1CCc2ccccc2C1
-14,7,CCCn1c(N)c(Sc2ccc([N+](=O)[O-])cc2)c(=O)n(CCC)c1=O
0,13,CNc1cnn(-c2ccc(C)cc2)c(=O)c1Cl
-38,14,CCCn1c(=O)n(C)c(=O)c2c(SCc3cc(C(C)=O)ccc3OCC)nc(C3CC3)nc21
-21,19,O=C(Nc1ccc(F)cc1)c1ccc(NC(=O)C2CCCO2)cc1 (stereo not given)
-1,7,CCCc1cc(=O)n2[nH]c(NCc3ccc(OC)cc3)nc2n1
-15,6,COc1ccc(CNC(=O)/C=C/C(=O)O)cc1
-2,7,Cc1ccc(SC(C)C(=O)N2CCC(C(N)=O)CC2)cc1 (stereo not given)
-19,6,O=C(O)c1cccc(CN2C(=O)c3ccccc3C2=O)c1
-1,13,CCn1nnc(NC(=O)c2c(OC)cccc2OC)n1
-7,8,C[C@H](N)c1nnc(SCC(=O)N(C)C)o1
-13,19,Cc1ccc(C)c(NC(=O)NC2CCCCCCC2)c1
-38,7,CCOC(=O)c1cnc2c(C)cccc2c1NCc1ccco1
-20,11,CCSC1=C(C#N)C(c2ccc(C)s2)CC(=O)N1 (stereo not given)
-11,34,S=C(NCc1ccco1)N1CCN(c2nc(-c3ccc(Cl)cc3)cs2)CC1
-32,13,CCOC(=O)c1cc(NC(=O)c2c(C)noc2C)cc(C(=O)OCC)c1
-5,13,Clc1ccccc1CNc1ncnc2nc[nH]c12
24,21,COc1ccccc1CNS(=O)(=O)c1cc(-c2cc(C)no2)ccc1C(C)C
-2,6,CCn1c(SCC(=O)Nc2ccccc2F)nnc1-c1ccoc1C
-37,5,CN(C)c1nc(-c2cccs2)cc(C(F)(F)F)c1C#N
-44,2,FC(F)(F)c1cc(-c2cccs2)nc(-n2cc(Cl)cn2)n1
-2,2,CCC1(C(=O)OC)NC(c2ccccc2OC)C2C(=O)N(C)C(=O)C21 (stereo not given)
-6,10,Cc1ccc(NC(=O)c2ccc3ncsc3c2)cc1S(=O)(=O)N(C)C
-16,11,CCN(CC)c1ccc(NC(=O)Cn2ncc3c(C)n(Cc4ccccc4F)c(C)c3c2=O)c(C)c1
-10,4,CC(C)c1nc(CNC(=O)CC2C(=O)NCCN2Cc2ccoc2)cs1 (stereo not given)
-23,7,COc1cccc2sc(Nc3nc(-c4cc5ccccc5oc4=O)cs3)nc12
-2,12,CC1CC2C3CCC4=CC(=O)C=CC4(C)C3(F)C(O)CC2(C)C1(O)C(=O)CO (stereo not given)
-6,-1,O=C(N/N=C\c1coc2ccccc2c1=O)c1ccco1
-6,18,Cc1ccc(S(=O)(=O)NC(=O)Nc2cc(C)on2)cc1
-19,3,COc1ccc(NC(=O)CSc2nc3ccc(Nc4nc(N5CCOCC5)nc(N5CCOCC5)n4)cc3s2)cc1
-22,42,Cc1ccc(OCCOCCOc2cccc3cccnc23)c(Br)c1
1,11,COc1cc(C2C(C(=O)Nc3ccc(F)cc3)=C(C)Nc3nc(CCCO)nn32)cc(OC)c1OC (stereo not given)
-29,6,O=C(NCCOc1ccccc1)C1Nc2ccc(C(F)(F)F)cc2C2c3ccccc3CC12 (stereo not given)
-2,14,O=C(CSc1ccc2nnc(CCNC(=O)c3ccccc3)n2n1)Nc1ccccc1F
-20,41,CN1CCC(OC(=O)c2cc3cc(Br)ccc3oc2=O)CC1
-31,14,COc1cccc(CN2CCN(Cc3ccc(O)c(OC)c3)CC2CCO)c1 (stereo not given)
5,14,COc1cccc(CN2C(=O)c3ccccc3C2C(=O)NCC2CCCO2)c1 (stereo not given)
-34,17,COc1ccccc1NC(=O)CCC(=O)Nc1nnc(C2CCCCC2)s1
-11,19,Cc1ccc(NC(=O)CSCC(=O)O)cc1
-6,14,CCOc1cc(-c2nnc(NC(=O)C3=COCCO3)o2)cc(OCC)c1OCC
-26,8,C[C@@H]1CC=C[C@H]2[C@H]1C(=O)N(Cc1ccccc1)[C@H]2c1ccc(C(F)(F)F)cc1

In another format: 2 of the compounds above.
COc1cc(C2C(C(=O)Nc3ccc(F)cc3)=C(C)Nc3nc(CCCO)nn32)cc(OC)c1OC (stereo not given)
  OX1R antag-1: 1; OX1R antag-2: 11
O=C(NCCOc1ccccc1)C1Nc2ccc(C(F)(F)F)cc2C2c3ccccc3CC12 (stereo not given)
  OX1R antag-1: -29; OX1R antag-2: 6

Further records:
OX1R antag-1,OX1R antag-2,structure
-4,24,Nc1n[nH]c(C(F)(F)F)c1-c1ccccc1
1,11,CN(C)C(=O)Cn1c(SCC(=O)NCc2ccc3c(c2)OCO3)nc2ccccc21
-10,4,COc1ccc(CNC(=O)c2c[nH]c3c(OC)cc(OC)cc3c2=O)cc1
0,22,O=C(O)c1ccc(NCc2nc3ccccc3n2Cc2ccccc2)cc1
-12,1,CCc1ccccc1Oc1coc2cc(O)ccc2c1=O
-13,66,Cc1ccc(N2CC(C(=O)Nc3ccccn3)CC2=O)cc1 (stereo not given)
-3,6,c1ccc2c(c1)[nH]c1ccncc12
-11,-5,O=C(NC1CCCc2ccccc21)C1CCCO1 (stereo not given)
1,11,CCCNc1nc2c(c(=O)[nH]c(=O)n2C)n1CCCc1ccccc1
-23,1,COCCNC(=S)N/N=C(\C)c1ccc(Cl)s1
-6,-4,Cn1cccc1C(=S)N=P(C1CCCCC1)(N1CCOCC1)N1CCOCC1
-18,12,COC(=O)c1c(N)sc(C(C)=O)c1C
-8,18,S=c1[nH]nc(-c2ccc3ncccc3c2)n1-c1ccc2c(c1)OCCO2
-29,4,O=C(COc1ccccc1)N1CCN(S(=O)(=O)c2ccc(Cl)cc2)CC1
-26,21,CCc1nc(NCCN2CCOCC2)c(C#N)c2c1CCCC2
-6,30,CCN(CC)S(=O)(=O)c1ccc(N=N/C(C(C)=O)=C(/C)O)cc1
-26,-6,Cc1c(C(=O)N2CCCCC2)c(S(=O)(=O)N2CCN(c3ccccc3F)CC2)c(C)n1C
-8,5,Cc1cc(NS(=O)(=O)c2ccc(NC(=O)CCc3ccccc3)cc2)no1
-24,4,Cc1ccccc1C(=O)Nc1ccccc1-c1nnn(CC(=O)Nc2ccc3c(c2)OCCO3)n1
-15,10,CCOc1ccccc1CNC(=O)CCCn1ncn2c(cc3occc32)c1=O
-7,16,COc1ccc(NC(=O)c2[nH]ncc2[N+](=O)[O-])cc1
-8,22,O=C(NC(=S)Nc1ccc2cn[nH]c2c1)c1ccccc1
-12,10,CC1CCCCN1C(=O)CSc1nnc(-c2ccco2)o1 (stereo not given)
-26,24,O=C1c2cccc3c2N(CCC3)C(=O)C1(F)c1ccccc1 (stereo not given)
-22,2,CC(Oc1ccccc1)C(=O)N=C1SC2CS(=O)(=O)CC2N1Cc1ccc(F)cc1 (stereo not given)
-15,3,CC(C)(C)c1ccc(C(=O)Nc2nnc(C3=COCCO3)o2)cc1
-34,3,Cn1nccc1/C=N\NC(=O)c1ccc(Cl)cc1
-9,10,O=C(NCCCN1CCCCC1)c1ccc2c(c1)NC(=O)C(N1CCOCC1)S2 (stereo not given)
-4,17,COCCN(CCOC)c1cc(C)c(C#N)c2nc3ccccc3n12
-12,23,Cn1nccc1C(=O)N1CCN(S(=O)(=O)c2ccc(Br)s2)CC1
-24,16,CCC(=O)N1c2ccc(S(=O)(=O)CCC(=O)Nc3ccc(OC)cc3OC)cc2CC1C (stereo not given)
-19,-1,Cc1c(C(=O)Nc2ccccc2F)cnn1-c1ccccc1
-31,12,CCCSc1nnc(Nc2ccccc2C)s1
-8,13,COC(=O)Nc1nc(Sc2ncc(C(F)(F)F)cc2Cl)n[nH]1
-28,10,CC(=O)c1ccc(Nc2nc(C)cc(C)n2)cc1
-16,1,Cc1cccc(C)c1NC(=O)CNCC(=O)Nc1c(C)cccc1C
3,11,CN1CCN(CCC(=O)Nc2ccccc2)CC1
-7,10,COc1ccc(N(C(C)C(=O)N(C)Cc2ccccc2)S(C)(=O)=O)cc1 (stereo not given)
-20,24,Cc1nn(-c2ccccc2)c(Cl)c1/C=N/Nc1nc2ccccc2n1C
-1,16,COC(=O)c1ccc2c(c1)NC(=O)C(N1CCCC1)S2 (stereo not given)
-2,11,Cc1cccc(OCc2n[nH]c(=S)o2)c1
3,13,CCCCNC(=O)CC(NS(=O)(=O)c1ccc(C)cc1)c1ccco1 (stereo not given)
-14,14,N#Cc1cc(S(=O)(=O)c2ccccc2)c(N)[nH]c1=O
-25,3,CCOc1c(Cl)cc(C(=O)NCCN2CCCCC2)cc1Cl

These rows are one share of the data, and most or all hits are left out here.
